Screening results from PubChem.
Rango complex inh – Rango-importin beta binding inhibition; Q14974; Rango CFP/YFP FRET sensor + importin beta, 45 min; Potency, µM (series often up to 92.2 µM), for the others: at the highest dose inhibition of complex formation; 340,000 tested, 0.031% active; AID 540263; active = rising FRET ratio curve, often small or poorly fitted; inconclusive = mostly compound fluorescence or quenching in the first reads; inactive = flat curves in all reads;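 note: potency is the fitted concentration of half-maximal effect; 0% = DMSO wells and 100% = buffer wells lacking importin beta; nearly all actives have a fitted effect of over 15% in size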
Target sequence (Q14974 whole entry, looked up): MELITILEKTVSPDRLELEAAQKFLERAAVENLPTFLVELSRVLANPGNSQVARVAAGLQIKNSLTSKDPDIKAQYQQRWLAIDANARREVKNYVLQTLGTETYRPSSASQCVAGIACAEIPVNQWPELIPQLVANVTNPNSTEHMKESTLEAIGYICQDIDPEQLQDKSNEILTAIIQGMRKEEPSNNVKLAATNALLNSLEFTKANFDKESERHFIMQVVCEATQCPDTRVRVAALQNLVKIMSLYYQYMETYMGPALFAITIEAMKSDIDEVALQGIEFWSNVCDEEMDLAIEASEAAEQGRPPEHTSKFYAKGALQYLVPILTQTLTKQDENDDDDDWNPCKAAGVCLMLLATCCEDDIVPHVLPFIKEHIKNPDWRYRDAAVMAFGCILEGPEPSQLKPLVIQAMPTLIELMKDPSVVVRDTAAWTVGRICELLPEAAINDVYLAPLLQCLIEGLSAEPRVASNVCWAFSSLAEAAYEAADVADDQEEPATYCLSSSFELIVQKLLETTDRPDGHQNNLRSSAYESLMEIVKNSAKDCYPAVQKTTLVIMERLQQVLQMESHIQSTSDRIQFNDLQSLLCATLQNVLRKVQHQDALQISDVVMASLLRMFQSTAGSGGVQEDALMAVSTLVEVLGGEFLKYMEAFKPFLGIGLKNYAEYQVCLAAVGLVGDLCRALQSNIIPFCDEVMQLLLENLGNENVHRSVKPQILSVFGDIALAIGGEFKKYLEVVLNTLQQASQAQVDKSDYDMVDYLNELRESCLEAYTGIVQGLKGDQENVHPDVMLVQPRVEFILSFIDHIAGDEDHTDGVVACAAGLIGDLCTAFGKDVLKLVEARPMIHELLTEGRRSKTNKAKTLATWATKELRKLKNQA
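FRET biosensor Rango (snurportin 1 IBB between N-terminal EYFP and C-terminal Cerulean), 50 nM in PBS/1 mM DTT/0.02% Tween-20/0.1% BSA, preincubated 5 min RT with compound; 0.125 microM importin beta added, 45 min RT, CFP/YFP FRET ratio read.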
miR-21 FLuc – raises the signal of a miR-21 reporter | HeLa miR-21 FLuc reporter, luciferase, 48 h | Potency, µM (doses to about 38.3 µM), without a hit: at the highest dose reporter change, positive = more light | 340,000 tested, under 10 active | AID 2288; active = well fitted rising curve with a large enough effect; inconclusive = small, poorly fitted or top-dose-only effect; inactive = no such curve, though single readings can be large or run the other way;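 note: % of control where 0% means no effect; miR-21 action dims this reporter so a rising signal means less miR-21 action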
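HeLa cells stably expressing CMV-driven firefly luciferase with a downstream miR-21 binding sequence, endogenously expressing miR-21, were treated with titrations (up to about 40uM final) for 48 hours at 37 degree Celsius. Luciferase luminescence was read after lysis.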
Rango release inh – inhibition of RanGTP-driven Rango-importin beta dissociation; Biochemical FRET Rango-importin beta, RanGTP-induced dissociation; Potency, µM (titrated, usually from 46.1 µM), for inactives: at the highest dose activity change, negative = inhibition; 340,000 tested, 0.071% active; AID 540253; active means falling FRET ratio curve, often poorly fitted, with flat reads before Ran was added; inconclusive means other falling curves, or compound fluorescence or quenching; inactive means flat or rising ratio curve;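 note: potency is the fitted concentration of half-maximal effect; % of control where 0% means no effect; nearly all actives have a fitted effect of over 45% in size; -100% = wells without RanGTP and RCC1; the record marks most hits as doubtful in a second field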
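Compounds sat 5 min at room temperature with 0.1 uM Rango biosensor plus 0.25 uM importin beta, then FRET pre-read. RanGTP-RCC1 (0.6 uM Ran, 2mM GTP, 0.2 uM RCC1) added for 45 min, and the CFP/YFP post-read measured blocked complex dissociation.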
GLA inh pH 4.5 – alpha-galactosidase A (human) inhibition, pH 4.5; 230,000 tested, under 10 active; activity change, negative = inhibition, % at 105 µM; purified enzyme, 4-MU-alpha-Gal fluorescence, pH 4.5; P06280; inconclusive = small, poorly fitted or top-dose-only inhibition, or a rising curve; inactive = flat fitted curve, though single readings scatter; no compound was filed as active;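 note: 0% = full activity with enzyme and -100% = basal without enzyme; dose as in the result columns while the protocol names 77 µM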
* hit, by the source's call; ? = inconclusive; / = not tested or not shown. Some of the compounds tested. The share of hits here may be higher or lower than overall.

SMILES | Rango complex inh | miR-21 FLuc | Rango release inh | GLA inh pH 4.5
CC(C)NC(=O)COc1coc(CN2CCN(c3ccccc3F)CC2)cc1=O | 2.4% | -1% | 8% | /
O=c1ccc2c(-c3ccccc3S(=O)(=O)O)c3ccc(O)c(O)c3oc-2c1O | ? | / | -2% | /
O=C(NCCc1ccccc1)C1CCC(CNS(=O)(=O)c2ccc(F)cc2)CC1 (stereo unspecified) | -0.1% | -22% | 19% | /
Cc1sc2nc(SCC(=O)Nc3ccc(S(N)(=O)=O)cc3)[nH]c(=O)c2c1C | -2.2% | 1% | -2% | /
CCOc1ccc(N=C2Sc3nc4ccc(C)cc4cc3CN2CCOC)cc1 | -5.6% | -1% | 14% | -9
O=C(CSCc1ccc(Cl)cc1)NN=C1CCCC1 | -0.6% | -6% | 14% | -5
O=C(NCC(c1ccco1)N1CCCCC1)c1ccc(S(=O)(=O)Nc2ccccc2)cc1 (stereo unspecified) | 0.6% | / | -12% | /
CC1(C)CC(=O)C(C=NCCC2=CCCCC2)=C(O)C1 | 14% | -7% | -10% | 6
CN(C(=O)COC(=O)c1ccccc1NC(=O)c1ccco1)C1CCS(=O)(=O)C1 (stereo unspecified) | -1.4% | 2% | -4% | -12
CCOc1ccc(CNCc2ccc(C(=O)O)cc2)cc1OC | 5.7% | -3% | -10% | 0
O=C(O)CCC(=O)Nc1ccc(S(=O)(=O)N2CCCC2)cc1 | -1.6% | -3% | -5% | 0
O=C(NCc1ccccn1)c1n[nH]c(=O)c2ccccc12 | 0.1% | -11% | 5% | 0
Cn1c(CNC(=O)c2cccs2)nnc1SCC(=O)Nc1ccc(Cl)cc1 | 0.1% | -3% | 23% | 5
O=C(CSc1ncccn1)Nc1ncc(C(F)(F)F)cc1Cl | -0.4% | -2% | 7% | 5
O=C(Nc1ccc(O)cc1)/C(=C\c1ccncc1)NC(=O)c1ccccc1 | -0.4% | -2% | -8% | -16
COc1ccc(C(=O)Nc2ccccc2C(=O)NC(C)C)cc1OC | 2.3% | -4% | 4% | 4
CC1(C)CC(CC(=O)NC(=S)Nc2ccc([N+](=O)[O-])cc2)C(=O)O1 (stereo unspecified) | -2.4% | 3% | 10% | -2
O=c1[nH]c(C2CCN(S(=O)(=O)/C=C/c3ccccc3)CC2)nc2c1nnn2Cc1ccccc1 | 4.1% | -8% | 19% | /
CCCOC(=O)c1ccc(NC(=O)C2C3CCC(C3)C2C(=O)O)cc1 (stereo unspecified) | -1.4% | -37% | 0% | -4
CCOC(=O)C1CCCN(CC(=O)c2ccc(F)cc2)C1 (stereo unspecified) | -3.7% | -6% | -11% | /
CSc1nc2ccc3nc(NC(=O)c4ccc(Cl)s4)sc3c2s1 | 4.2% | -2% | -2% | 0
Cc1ccc(NC(=O)C2COc3ccccc3O2)cc1S(=O)(=O)N1CCCCC1 (stereo unspecified) | -2.6% | / | 7% | /
Cc1cc(C(=O)NC2CCCC2)c2ccccc2n1 | 1.1% | 1% | -9% | /
COc1ccc(N(CC(=O)N/N=C/c2cccnc2)S(=O)(=O)c2ccccc2)c(OC)c1 | -1.0% | 0% | 16% | /
CCOC(=O)C1=C(C)N(CC)C(=S)NC1c1ccccc1OC(F)F (stereo unspecified) | 0.6% | 8% | 0% | -15
c1coc(CN2CNc3nc4ccccc4n3C2)c1 | 1.8% | -1% | 2% | 2
COCCN(C(=O)COC(=O)CCc1ccc(OC)cc1)c1c(N)n(Cc2ccccc2)c(=O)[nH]c1=O | -1.2% | / | -17% | /
CN(C)c1nc2ccccc2n(C)c1=O | 1.7% | -2% | 1% | -11
Cc1ccc(C)c(NC(=O)c2cc(-c3cc(C)cc(C)c3O)n[nH]2)c1 | 0.5% | 5% | 0% | /
COc1ccc(-c2nsc(SCC(=O)NCc3ccc4c(c3)OCO4)n2)cc1 | -0.7% | -43% | 14% | 0
Cc1ccc(CC(SCc2ccccc2)C(=O)O)cc1C (stereo unspecified) | -4.4% | 3% | -13% | /
Cc1noc(C)c1COC(=O)c1cc(F)c(F)cc1Cl | -0.5% | -3% | 23% | 8
NC(=O)CC(NC(=O)Cc1cccc2ccccc12)c1ccc(NC2CCN(Cc3ccccc3)CC2)c([N+](=O)[O-])c1 (stereo unspecified) | 2.5% | -12% | -3% | /
O=C(c1cnn2cccnc12)N1CCN(Cc2ccc3c(c2)OCO3)CC1 | 2.7% | -5% | 2% | -4
CCN(CC)CCCn1c2c(c(SCC(=O)N3CCc4ccccc43)nc1=O)CCC2 | 7.1% | / | ? | /
Cc1ccccc1COc1ccc(-c2nnn(CC(=O)O)n2)cc1 | -5.3% | -5% | -5% | /
CC(C(=O)c1ccc(Br)cc1)[n+]1cccc(NC(=O)c2ccccc2)c1 (stereo unspecified) | 2.0% | 0% | -13% | -19
C=CCn1c(SCc2nc3sc(C(=O)O)c(C)c3c(=O)[nH]2)nnc1-c1ccc(F)cc1 | -2.1% | 3% | -4% | 6
CSc1ccc(CN(C)Cc2nc3ccccc3c(=O)[nH]2)cc1 | -0.4% | 2% | 3% | 5
COc1ccc(-n2nc(C(=O)Nc3ccc4c(c3)OCO4)c3ccccc3c2=O)c(OC)c1 | -2.3% | 0% | 0% | -7
CC(C(=O)Nc1cccc(S(=O)(=O)N2CCOCC2)c1)N1CCN(c2ccc(F)cc2)CC1 (stereo unspecified) | -4.3% | 7% | 19% | -3
CCOc1cccc2sc(N(CCN(CC)CC)C(=O)c3cccc([N+](=O)[O-])c3)nc12 | 6.0% | 4% | 17% | -2
Cc1ccc(-c2nnn(CC(=O)N3CCCCC3)n2)c(-n2cnnn2)c1 | 2.2% | 0% | 2% | 3
NC(=Nc1ccccc1)Nc1ccccc1 | -1.8% | -17% | -11% | /
C/C(=N\O)C(=O)C(CN1CCCCC1)CN1CCCCC1 | -0.6% | -2% | -6% | 3
O=C(COc1ccc(C(=S)N2CCC(Cc3ccccc3)CC2)cc1)N1CCOCC1 | 6.0% | -2% | 13% | 0
COc1cccc(CNCC(O)COc2ccc(C(=O)c3ccccc3)cc2)c1 (stereo unspecified) | -0.4% | 0% | 4% | /
Cc1ccc(C)c(N2CCN(C(=O)c3cc(S(=O)(=O)N4CCOCC4)ccc3F)CC2)c1 | -0.9% | 0% | 3% | -5
COc1ccc(Cl)cc1NC(=O)CSc1nnc(Cc2ccc(C)cc2)c(=O)[nH]1 | ? | / | 7% | /
O=C(c1sccc1Br)N1CCN(Cc2ccc3c(c2)OCO3)CC1 | 1.7% | 11% | -18% | 0
O=C(O)CCCNc1cc(N2CCC3(CC2)OCCO3)c2noc3c2c1C(=O)c1ccccc1-3 | / | -41% | / | -7
O=C(Oc1ccccc1N1C(=O)CCC1=O)c1ccco1 | 0.4% | -3% | 0% | /
Cc1cc(C)c(NC(=O)NC(=O)c2ccc(F)cc2)c(C)n1 | 0.9% | -37% | -26% | -22
Cc1nc2cc(NC(=O)N3CCCCC3)ccc2n1C | -2.2% | -51% | 22% | 7
Nc1nc2n(n1)C(c1ccc(F)cc1)CC(c1ccc(F)cc1)N2 (stereo unspecified) | 0.3% | -5% | 0% | 3
COc1ccc(NC(=O)Nc2cccc3c2O[C@H](CN(C)C(=O)Nc2ccc4c(c2)OCO4)[C@@H](C)CN([C@H](C)CO)C3=O)cc1 | -0.9% | / | 14% | /
COc1cc(/C=N/NC(=O)c2c(C)nnn2-c2nonc2N)ccc1O | 0.5% | -4% | -3% | -19
CCCc1cc(=O)[nH]c(SCC(=O)Nc2oc(C)c3c(C)n[nH]c(=O)c23)n1 | -0.2% | / | 10% | /
CN(C)C(=O)CCc1ccc2c3c([nH]c2c1)[C@]1(CCC2CCCC2)[C@@H](C(=O)N2CCOCC2)C[C@H](CC(=O)NCCN2CCOCC2)C(=O)N1CC3 | -4.7% | / | 0% | /
Cc1sc2nc3n(c(=O)c2c1C)NC(=O)CC3 | -1.1% | -5% | -4% | -1

Quoted at random: 5 records from the list.
SMILES | Rango complex inh | miR-21 FLuc | Rango release inh | GLA inh pH 4.5
COc1cccc(CNCC(O)COc2ccc(C(=O)c3ccccc3)cc2)c1 (stereo unspecified) | -0.4% | 0% | 4% | /
O=C(COc1ccc(C(=S)N2CCC(Cc3ccccc3)CC2)cc1)N1CCOCC1 | 6.0% | -2% | 13% | 0
CCCc1cc(=O)[nH]c(SCC(=O)Nc2oc(C)c3c(C)n[nH]c(=O)c23)n1 | -0.2% | / | 10% | /
CCOc1cccc2sc(N(CCN(CC)CC)C(=O)c3cccc([N+](=O)[O-])c3)nc12 | 6.0% | 4% | 17% | -2
O=C(Oc1ccccc1N1C(=O)CCC1=O)c1ccco1 | 0.4% | -3% | 0% | /

5 entries out of the list, sorted by formula weight, descending.
SMILES | Rango complex inh | miR-21 FLuc | Rango release inh | GLA inh pH 4.5
O=C(O)CCCNc1cc(N2CCC3(CC2)OCCO3)c2noc3c2c1C(=O)c1ccccc1-3 | / | -41% | / | -7
CCOc1cccc2sc(N(CCN(CC)CC)C(=O)c3cccc([N+](=O)[O-])c3)nc12 | 6.0% | 4% | 17% | -2
COc1cccc(CNCC(O)COc2ccc(C(=O)c3ccccc3)cc2)c1 (stereo unspecified) | -0.4% | 0% | 4% | /
C/C(=N\O)C(=O)C(CN1CCCCC1)CN1CCCCC1 | -0.6% | -2% | -6% | 3
O=C(Oc1ccccc1N1C(=O)CCC1=O)c1ccco1 | 0.4% | -3% | 0% | /

(cont.)
SMILES | Rango complex inh | miR-21 FLuc | Rango release inh | GLA inh pH 4.5
Cc1ccc(C(=O)N/N=C2\CCc3ccccc32)c(C)c1 | 0.5% | -33% | 1% | 5
COc1ccc(-c2c(C)nn(-c3ccccc3)c2NC(C)=O)cc1OC | 2.9% | 1% | 2% | /
O=C(O)c1ccc2c(c1)C(=O)N(c1ncccn1)C2=O | -1.1% | -3% | 1% | 2
O=C(CCn1ccnc1)Nc1cc(Cl)ccc1O | 1.8% | -2% | 0% | /
Cc1ccc2nc(NC(=S)NC(=O)c3ccc(OC(C)C)cc3)sc2c1 | 5.1% | 3% | 11% | 3
COc1ccc(OCCCC(=O)Nc2ccc(OC)c(S(=O)(=O)N3CCOCC3)c2)cc1 | -2.4% | / | -5% | /
O=C(COC(=O)COc1ccccc1F)Nc1cccc(S(=O)(=O)N2CCCCC2)c1 | 0.8% | / | 5% | /
CC(=O)c1c(N=CN(C)C)nc(C)nc1-c1ccccc1 | 0.2% | -4% | -6% | -13
O=C(NCc1ccccc1)c1ccc(Br)o1 | -0.2% | -8% | -1% | -7
CN1C(=O)/C(=C/C=C2/CCCN2C)N(C)C1=S | -4.5% | -2% | -13% | 5
Cc1ccc2cc3cc(C(=O)N4CCCCCC4)oc3nc2c1 | 0.7% | -60% | 12% | 4
COc1cc(COc2ccc3c(C)c(Cc4ccccc4)c(=O)oc3c2C)cc(OC)c1OC | -1.8% | 14% | 0% | -11
COc1ccc(/C=N/NC(=S)Nc2ccccc2)cc1COc1ccc(Br)cc1 | 0.5% | -17% | -4% | -6
COc1ccc(S(=O)(=O)N(CC(=O)N/N=C/c2cccs2)c2cc(C)cc(C)c2)cc1OC | 0.4% | 5% | -15% | -20
Cc1ccc(-n2c(C)nn(-c3ncc(C(F)(F)F)cc3Cl)c2=O)cc1 | 0.6% | -13% | -4% | 6
CCCCNC(=O)O[C@@H]1C[C@H]2CCC(=O)N3CC[C@@H](C1)[C@@H]23 | 4.2% | 1% | 9% | /
O=C(Nc1cccc([N+](=O)[O-])c1)C1C2/C=C\CCCCC21 (stereo unspecified) | -0.4% | -4% | 24% | 4
CCOc1ccccc1NC(=O)Cn1c(=O)sc2ccccc21 | -2.0% | -5% | 10% | -10
CCCOc1ccc(C(=O)OCC(=O)c2c(N)n(C)c(=O)n(C)c2=O)cc1OCC | 6.5% | 5% | 10% | 9
CN1C(=O)Cc2cc(S(=O)(=O)N3CCN(c4cccc(Cl)c4)CC3)ccc21 | 3.8% | 1% | -1% | /
CCc1nccn1S(=O)(=O)c1cc(C)c(OC)cc1C | -3.8% | -1% | 7% | 7
